RVFV N-RNA inh – inhibitors of RVFV nucleoprotein–RNA binding, primary screen, biochemical, fluorescence polarization. 20,000 tested, 0.1% active. P21700. % bound, % (concentration not given with the values). RVFV N-RNA binding; stronger effect = lower value. AID 651828, 2012;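 active means between 0 and 58% in either replicate with normal brightness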;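 further: 100 nL library stock added to about 12 µL; 100% = protein and probe without compound and 0% = probe alone; numbers are from one replicate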
Target sequence (P21700 whole entry, looked up): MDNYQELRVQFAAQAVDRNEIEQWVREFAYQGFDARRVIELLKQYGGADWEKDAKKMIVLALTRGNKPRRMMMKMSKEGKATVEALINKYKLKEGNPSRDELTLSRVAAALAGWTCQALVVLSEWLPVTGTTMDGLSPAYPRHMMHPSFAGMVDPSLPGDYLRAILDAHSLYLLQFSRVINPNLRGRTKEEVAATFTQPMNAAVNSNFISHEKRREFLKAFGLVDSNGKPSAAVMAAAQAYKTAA
* marks the source's active call; other numbers are inactive results; & = joins results of further samples. An excerpt; the hit share may differ from the screen's.

SMILES	RVFV N-RNA inh
O=C1NC(Nc2ccccn2)(C(F)(F)F)C(=O)N1c1ccc(F)cc1 (centres undefined)	97
COc1ccc(CN2CCN(C)CC2)cc1Br	92
C[C@@H]([C@H](O)c1ccccc1)N(C)C	100
Cc1noc(C)c1C(=O)NNc1ccccc1C(F)(F)F	91
c1cncc(-c2csc(-c3cccnc3)n2)c1	103
CCOC(=O)c1cc(C)nn1Cc1ccc(Cl)cc1	91
COc1ccc(CN2CCCCCC2)cc1	99
Cc1ccccc1-c1nsc(SCC(=O)N2CCCCC2)n1	98
COC(=O)C(C)Oc1ccc2c(c1)oc(=O)c1ccccc12 (centres undefined)	112
CCC(C)Sc1nnc(Cn2c(=O)sc3ccccc32)n1-c1ccc(OC)cc1 (centres undefined)	98
O=C(c1cccnc1)n1nc(NCc2ccccc2)nc1NCc1ccccc1	112
CC1=C(CC(=O)O)c2cc(F)ccc2/C1=C\c1ccc(S(C)(=O)=O)cc1	93
O=C1CCCC2=C1C(c1ccc(Cl)cc1)N=C(Nc1nc3ccccc3o1)N2 (centres undefined)	94
CC1(C)C2CCC1C(O)C2O (centres undefined)	108
O=C(OCCN1C(=O)c2ccccc2C1=O)c1cccs1	93
CC1=CC(=C2C(=O)NC(=O)NC2=O)C=C(C(F)(F)F)N1C(C)C	86
O=C(c1c[nH]c(=O)n(-c2ccccc2)c1=O)N1CCc2ccccc21	98
COc1ccc2c(c1)CCC1C2=NN(C(C)=O)C1c1ccccc1F (centres undefined)	92
CCC(=O)Nc1cccc2cccnc12	109
O=C(Nc1ccc(Cl)cc1)c1cnn2c(C(F)F)cc(C3CC3)nc12	95
Cn1cc(NC(=O)NCc2ccc3c(c2)OCO3)c2ccccc21	97
CC1CCCCN1S(=O)(=O)c1ccc(NC(=O)COc2ccc(F)cc2)cc1 (centres undefined)	96
O=C1NC(c2ccc(Cl)cc2)c2c1oc1ccccc1c2=O (centres undefined)	97
CCCC(=O)N1CCN(c2ccc(NC(=O)c3cc(OC)c(OC)c(OC)c3)cc2Cl)CC1	90
COc1ccccc1/C=C1/SC(=O)N(CN2CC(C)OC(C)C2)C1=O (centres undefined)	88
More results
SMILES	RVFV N-RNA inh
Cc1nnc(NC(=O)c2ccc(S(=O)(=O)N(CC(C)C)CC(C)C)cc2)o1	93
O=C(O)CN(CC(=O)Nc1cccnc1)Cc1ccccc1	91
C(=NN1CCN(C2c3ccccc3-c3ccccc32)CC1)c1ccco1	94
CCn1c(C(C)(C)C)nc2ccccc21	94
Cn1ccc(NC(=O)NC(=O)c2c(Cl)cccc2Cl)n1	92
CCCN1CCc2c(C)c(C#N)c3nc4ccccc4n3c21	96
COc1cc(OC)c(C2=NOC(C(=O)NCC3CCCO3)C2)cc1Cl (centres undefined)	91
Cc1cccc(C)c1NC(=O)CN1CCCC1=O	97
O=C(O)C(c1ccccc1)N1C(=O)/C(=C\c2ccco2)SC1=S (centres undefined)	94
NS(=O)(=O)c1ccc(N=Cc2ccccc2)cc1	95
O=C1c2nc3cc(-c4ccccc4)[nH]n3c(=O)c2CN1Cc1ccco1	99
O=C(c1cccs1)n1cc2c(n1)-c1cc(Cl)ccc1SC2	99
O=C(ON1C(=O)CCC1=O)c1ccc(Br)o1	91
OCCN1CCN(CC2CC=CCC2)CC1 (centres undefined)	108
Cc1nc2ccccc2c2c1C(=O)NC2=O	102
COc1ccc(/C=C/C(=O)C2C(=O)COC2=O)cc1OC (centres undefined)	97
COC[C@H]1OC(=O)c2coc3c2[C@@]1(C)C1=C(C3=O)C2CCC(=O)[C@@]2(C)C[C@H]1OC(C)=O (some centres undefined)	97
COc1ccc(C(=O)NC(=S)N2CC(C)OC(C)C2)cc1 (centres undefined)	97
Cc1c(C(C)NC(=O)COc2ccc(Br)cc2Cl)cnn1C (centres undefined)	110
Cn1c(=O)n2n(c1=O)C1C=CC2C1	96
CCOC(=O)c1nn(-c2ccccc2)c(C#N)c1N	96
Cc1n[nH]c(=S)n1/N=C/c1c[nH]c2ccccc12	94
CSc1ccccc1-c1nnc(NC(=O)Cc2ccccc2)o1	90
O=C(CSC(=S)N1CCCC1)c1ccccc1	110
c1ccc(C(CNc2ncccn2)c2ccccc2)cc1	97
Following part.
SMILES	RVFV N-RNA inh
C/C(=N\OC(=O)c1ccco1)c1ccccc1O	94
Cc1cc(OCC(=O)C(C)(C)C)c2c3c(c(=O)oc2c1)CCCC3	96
COc1cc(/C=N/S(=O)(=O)CCc2ccccc2)cc(OC)c1O	97
NNCCc1ccccc1	97&95&101
Cc1cc2nc(N)nc(N)n2n1	100
CS(=O)(=O)N1CCN(C(=O)Cc2ccc(-c3ccccc3)cc2)CC1	94
NC1=NC(=O)C(CC(=O)Nc2cccc(C(F)(F)F)c2)S1 (centres undefined)	93
CC(C)NC(=O)c1ccc(COCC(F)(F)F)cc1	100
CCCCc1nnc(NC(=O)c2c(OC)cccc2OC)s1	98
C/C(=N\NC(=O)c1sc2ccccc2c1Cl)c1ccco1	97
NS(=O)(=O)c1ccc(CNC(=S)NC2CCCC2)cc1	90
CN1CCN2c3ncccc3Cc3ccccc3C2C1 (centres undefined)	91
CC1=CC(=O)N(c2ccc(C3CCCCC3)cc2)C1=O	89
O=C1CCC(N2C(=O)c3ccccc3C2=O)C(=O)N1 (centres undefined)	97&104&95
Cn1cc(Cl)c(C=C(C#N)C#N)n1	104
CCS(=O)(=O)CCn1c([N+](=O)[O-])cnc1C	98&104
C/C(=N\O)C(=O)OC1CC(C)CCC1C(C)C (centres undefined)	102
COC(=O)c1c(NC(C)=O)sc2c1CCS2	92
Cc1cccc(NC(=O)c2cccc(N3C(=O)CCC3=O)c2)c1	97
COCCNC(=O)c1ccc(NC(=O)c2cccc(OC)c2)cc1	92
Cc1ccnc(SCC(=O)c2ccc(Br)cc2)n1	97
N#Cc1cn(CCCOc2ccccc2Cl)c2ccccc12	101
O=C(CSc1nc2[nH]ncc2c(=O)n1-c1ccccc1)c1ccc2c(c1)OCCO2	98
CC(=O)Nc1ccc(S(=O)(=O)NC2CCCCC2C)cc1 (centres undefined)	96
CCn1c(Nc2ccccc2Cl)nc2ccccc21	95

31 successive compounds already listed, quoted:
SMILES	RVFV N-RNA inh
COC[C@H]1OC(=O)c2coc3c2[C@@]1(C)C1=C(C3=O)C2CCC(=O)[C@@]2(C)C[C@H]1OC(C)=O (some centres undefined)	97
COc1ccc(C(=O)NC(=S)N2CC(C)OC(C)C2)cc1 (centres undefined)	97
Cc1c(C(C)NC(=O)COc2ccc(Br)cc2Cl)cnn1C (centres undefined)	110
Cn1c(=O)n2n(c1=O)C1C=CC2C1	96
CCOC(=O)c1nn(-c2ccccc2)c(C#N)c1N	96
Cc1n[nH]c(=S)n1/N=C/c1c[nH]c2ccccc12	94
CSc1ccccc1-c1nnc(NC(=O)Cc2ccccc2)o1	90
O=C(CSC(=S)N1CCCC1)c1ccccc1	110
c1ccc(C(CNc2ncccn2)c2ccccc2)cc1	97
C/C(=N\OC(=O)c1ccco1)c1ccccc1O	94
Cc1cc(OCC(=O)C(C)(C)C)c2c3c(c(=O)oc2c1)CCCC3	96
COc1cc(/C=N/S(=O)(=O)CCc2ccccc2)cc(OC)c1O	97
NNCCc1ccccc1	97&95&101
Cc1cc2nc(N)nc(N)n2n1	100
CS(=O)(=O)N1CCN(C(=O)Cc2ccc(-c3ccccc3)cc2)CC1	94
NC1=NC(=O)C(CC(=O)Nc2cccc(C(F)(F)F)c2)S1 (centres undefined)	93
CC(C)NC(=O)c1ccc(COCC(F)(F)F)cc1	100
CCCCc1nnc(NC(=O)c2c(OC)cccc2OC)s1	98
C/C(=N\NC(=O)c1sc2ccccc2c1Cl)c1ccco1	97
NS(=O)(=O)c1ccc(CNC(=S)NC2CCCC2)cc1	90
CN1CCN2c3ncccc3Cc3ccccc3C2C1 (centres undefined)	91
CC1=CC(=O)N(c2ccc(C3CCCCC3)cc2)C1=O	89
O=C1CCC(N2C(=O)c3ccccc3C2=O)C(=O)N1 (centres undefined)	97&104&95
Cn1cc(Cl)c(C=C(C#N)C#N)n1	104
CCS(=O)(=O)CCn1c([N+](=O)[O-])cnc1C	98&104
C/C(=N\O)C(=O)OC1CC(C)CCC1C(C)C (centres undefined)	102
COC(=O)c1c(NC(C)=O)sc2c1CCS2	92
Cc1cccc(NC(=O)c2cccc(N3C(=O)CCC3=O)c2)c1	97
COCCNC(=O)c1ccc(NC(=O)c2cccc(OC)c2)cc1	92
Cc1ccnc(SCC(=O)c2ccc(Br)cc2)n1	97
N#Cc1cn(CCCOc2ccccc2Cl)c2ccccc12	101

Following part.
SMILES	RVFV N-RNA inh
NNC(=O)c1cn2cc(C(F)(F)F)cc(Cl)c2n1	99
CCN(CC)C(=O)c1sc(NC(=S)NCCn2cc(Br)cn2)c(C(=O)OC)c1C	93
CCCCN1C(=O)c2cccc3c(Cl)ccc1c23	100
CN(C)/C=N/NC(=O)c1cc(COc2cc(Cl)cc(Cl)c2)on1	106
O=C1N/C(=N/N=C\c2[nH]ncc2Br)SC1c1ccccc1 (centres undefined)	94
C=CCN(CC=C)C(=O)c1ccc(N2C(=O)c3ccccc3C2=O)cc1	97
CC12C(=O)N(c3ccc(I)cc3)C(=O)C1C1C=CC2C1 (centres undefined)	101
O=C(N/N=C\c1cccnc1)c1n[nH]c2c1CCCC2	99
O=C(c1ccc(Cl)s1)N1CCc2ccccc2C1	105
O=C1COc2ccc(C(=O)NCc3ccc4c(c3)OCO4)cc2N1	95
CCSc1nnc(Cc2ccccc2)o1	93
Cc1oc(C(=O)O)cc1CSc1nc2ccccc2[nH]1	114
CC(C)Cn1c(=O)c2ccccc2c2ccccc2c1=O	100
Cc1ccc(C(=O)c2ccccc2C(=O)O)c(C)c1	91
CCn1c(N)c(C(=O)NC)sc1=S	97
CC(=O)N1c2nonc2N(C(C)=O)c2nonc21	95
O=C1c2ccccc2C(=O)N1CN1CCSCC1	88
COc1ccc2c(c1)CCC1C2CC[C@@]2(C)C1CC[C@@H]2NCCCCCCN1C(=O)C=CC1=O (some centres undefined)	89
O=C(N/N=C/c1cn(-c2ccccc2)nc1-c1cccs1)c1cccs1	87
CCOc1ccccc1NC(=O)CS	98
COc1ccc(C2NCCc3[nH]cnc32)cc1OC (centres undefined)	94
CC(C(N)=O)N(c1ccc(Cl)cc1)S(C)(=O)=O (centres undefined)	93
Cn1cc(CNC(=S)NCc2ccc(Cl)cc2)cn1	102
Cc1cccc(C(=O)N2CC(C)CC(C)C2)c1 (centres undefined)	97
CCN(CC)c1ccc(N=Cc2ccccc2O)cc1	94
Continued:
SMILES	RVFV N-RNA inh
O=C(Nc1ccc(N2CCCCS2(=O)=O)cc1)c1ccccc1	89
OC1CCCN(Cc2cccc3ccccc23)C1 (centres undefined)	99
O=c1c(=NO)c(=O)c2ccccc12	98
CSc1cnn(-c2ccccc2)c(=O)c1SC	79
S=C(NC1CCCC1)N1CCN(c2ccccc2)CC1	89
Cc1cc(C)cc(NC(=O)C2CC(=O)NC(=NCc3ccccc3)N2)c1 (centres undefined)	96
CS(=O)c1scc(-c2ccc(Cl)cc2)c1C#N (centres undefined)	94
CCC(C)Sc1nc(O)cc(=O)n1-c1ccccc1 (centres undefined)	99
Cn1c(=O)c2[nH]cnc2n(C)c1=O	106&94&100
O=C(Nc1ccc(S(=O)(=O)N2CCCC2)cc1)Nc1ccc(F)cc1F	100
C=CCc1cccc(/C=N/n2c(-c3ccccc3C)n[nH]c2=S)c1O	86
Cc1nccn1C(=O)c1cc2ccccc2oc1=O	95
Cc1c(Cl)cccc1-n1ccn(CC#N)c(=O)c1=O	103
c1ccc(-c2nc3ccccc3nc2N2CCCCC2)cc1	96
COC(=O)c1sccc1NC(=O)c1ccc(F)cc1	94
CN1CCCN(CC2CC=CCC2)CC1 (centres undefined)	98
CCCNC(=O)c1ccccc1SC	113
NC(=O)C1CCN(CC(=O)NCc2ccc3c(c2)OCO3)CC1	101
CN(C)c1cnn(-c2ccccc2)c(=O)c1Cl	95
CCN(/C=N/c1ncc(-c2ccc(Br)cc2)s1)CC	97
CCN(CC)c1nc(Nc2ccc(Cl)cc2)nc(N(CC)CC)n1	98
CCCN1CCC(NC(=S)NC2CCCC2)CC1	95
CN(C)c1nc(N(C)C)nc(N(C#N)S(=O)(=O)c2ccccc2Cl)n1	89
C#CCOC(=O)Nc1ccccc1OC	96
CC(=O)OC/C=C(C)/C=C/C=C(C)/C=C/C1=C(C)CCCC1(C)C	99
Following part
SMILES	RVFV N-RNA inh
CCOc1ccc(-c2c(=O)n(O)c3ccccc3[n+]2[O-])cc1	82
CCOc1ccc(NC(=O)C2CCN(S(=O)(=O)CC)CC2)cc1	96
COc1ccc2c(c1)c1nc(C)sc1n2CCN1CCOCC1	101
COc1cccc(N2CC(=O)N(NC(=O)NC3CCCCC3)CC2=O)c1	92
Cc1cc(OCCON2C(=O)CCC2=O)c(C)cc1Cl	102
CCN(CC)CCCNc1nnc(C)c(=O)[nH]1	97
O=S(=O)(CC(O)COc1ccc(Br)cc1)c1ccccc1 (centres undefined)	99
CC(/C=C/c1ccccc1)=N\NC(N)=S	100
COc1nc2ccccc2nc1CCC(=O)Nc1ccccc1	105
CCCN1C(=O)C2(Nc3ccccc3-c3nc4ccccc4n32)c2ccccc21 (centres undefined)	102
COc1ccc2[nH]c(C(=O)N3CCCN(Cc4ccc(F)cc4)CC3)cc2c1	98
CCC(=O)N=c1sc2ccccc2n1CC(=O)OC	100
CCOc1ccc(N/C=C(\C#N)c2nc3ccccc3[nH]2)cc1	101
CN(C)/C=C(\C#N)C(=O)Nc1ccccc1	92
CCCCc1nnc(NC(=O)CN2C(=O)c3ccccc3C2=O)s1	100
Cc1ccc(S(=O)(=O)N=S(c2ccccc2)c2ccccc2)cc1	99
CCOC(=O)Cc1cc(=O)[nH]c(Nc2nc3ccccc3o2)n1	102
CC(C)C(=O)N1CCN(c2ccccc2)CC1	102
NC[C@@H]1O[C@H](C23CC4CC(CC(C4)C2)C3)Cc2c1ccc(O)c2O	99
C/C(=C/C(=O)O)C(=O)Nc1ccccc1F	99
Nc1noc2oc3nc(-c4ccncc4)cc(C(F)(F)F)c3c12	97
Nc1ncnc2c1cnn2-c1ccccc1	83

From PubChem BioAssay
